# Screening results from PubChem.
# CapD inh = Bacillus anthracis CapD inhibitors, primary screen, biochemical, fluorescence intensity; CapD gamma-glutamyltranspeptidase (Bacillus anthracis Ames Ancestor); purified CapD enzyme, fluorescence intensity read-out; active compounds read low; some hits fall short of the stated cut; z-score (no concentration beside the values); actives 0.23% (n = 140,000);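 active = z-score under -4 in either of two replicates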;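 note: stock transfer was 100 nL into about 40 µL; score is relative to mean and spread of the plate; one replicate is shown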
# AID504770 = growth inhibition of E. coli YBA685, primary screen, V. cholerae RctB inhibitors | E. coli YBA685 rctB-dependent plasmid, OD600 growth, 3 h; active compounds read low | z-score (no concentration beside the values) | actives 0.27% (n = 130,000) | AID 504770, 2011;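 active = z-score under -2 on both plates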;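 note: wells of about 30 µL received 100 nL stock; score is relative to mean and SD of the test wells; the first replicate is given; strong numbers were not always called active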
# * marks the source's active call; other numbers are inactive results; . = no result given; & = joins results of further samples. This is a random part of the collection. About 0.37% of those tested had a hit in this group.
SMILES,CapD inh,AID504770
CC(C)(C)c1ccc(C(=O)Nc2ccc3oc(-c4ccncc4)nc3c2)cc1,7.59,0.3
CCC(C)NC(=O)c1ccc(N2CCCC2=O)cc1 (centres undefined),0.535,0.7
COc1cccc(-c2nc(CS(=O)(=O)CC(=O)N3CCCCC3)c(C)o2)c1,-0.56,-0.05
COC(=O)C12CC3CC(CC(Br)(C3)C1)C2,-0.225,-0.6
Cc1ccc(/C(N)=N/OC(=O)c2ccccc2)cc1,0.455,0.05
CC1(C)CC(NCc2ccccc2)CCO1 (centres undefined),.,0.3
NNC(=O)c1ccc(OCc2ccc(F)cc2)cc1,0.85,-0.15
CCN1CCN(C(c2cccs2)C(C)NC(=O)Cc2ccc(F)cc2)CC1 (centres undefined),0.185,-0.5
Cc1c(NC(=O)CSc2nc3ccc(NC(=O)c4ccc(Cl)cc4)cc3s2)c(=O)n(-c2ccccc2)n1C,-0.28,.
Nc1nc2ccc(Oc3ccccc3)cc2s1,-0.145,0.85
CCN1CCCC(OC(=O)C(c2ccccc2)c2ccccc2)C1 (centres undefined),-0.28&0.18,-0.75
COc1ccc(C2(O)CN(c3ccccc3)C3=[N+]2CCCS3)cc1 (centres undefined),1.01,.
CC1(C)CC(C(=O)COc2ccc3ccc(=O)oc3c2)CCO1 (centres undefined),36.8,1.5
Cc1oc2c(c1C(=O)NCc1cc(C(=O)O)co1)CCCC2,.,-0.25
O=C(O)COc1ccc(/C=C2/NC(=S)NC2=O)cc1,-0.47,-0.25
O=C(CSc1nnc(COc2ccc(Cl)cc2)o1)N1CCc2ccccc21,-0.205,-0.1
c1ccc(-c2nc(C3CCCCC3)no2)cc1,0.035,-0.6
Cc1onc(-c2ccccc2)c1NC(=O)N(CCC#N)C(C)C,-0.195,0.65
Clc1cccc(Cl)c1Cn1c(-c2cccnc2Cl)nc2ccccc21,-0.415,.
c1ccc(Cn2ncc3c2ncn2nc(-c4ccncc4)nc32)cc1,0.205,-0.15
Cc1nonc1NC(=O)CNC1CCCCC1,.,0.15
COc1cc(C2=N/C(=C\C(Br)=C\c3ccccc3)C(=O)O2)cc(OC)c1OC,2.23,.
Cc1c(S(=O)(=O)c2ccc(Cl)cc2)cnc2cc(C(C)(C)C)nn12,0.72,.
CCCC12CN3CC(CCC)(CN(C1)C3C)C2=O (centres undefined),0.295,0.5
COc1ccc(C2C(C#N)=C(N)OC3=C2C(=O)CC(C)(C)C3)cc1COc1ccccc1C (centres undefined),0.285,.
SMILES,CapD inh,AID504770
C#CCNCc1ccccc1,.,-0.15
CC(=O)Nc1cccnc1,-0.235,2.2
C=CCOc1c(Br)cc(/C=C2\NC(=S)NC2=O)cc1Br,-0.26,.
CCCOc1ccc(C2Oc3ccccc3C3CC(c4cccc5ccccc45)=NN32)cc1 (centres undefined),20.7,.
FC(F)(F)CN(Cn1nc(-c2ccco2)oc1=S)Cn1nc(-c2ccco2)oc1=S,.,-0.2
N#Cc1cnn2c(-c3ccc(Cl)cc3Cl)ccnc12,5.27,-1.95
O=C(Nc1ccc(S(=O)(=O)N2CCCCC2c2cccnc2)cc1)c1ccccc1[N+](=O)[O-] (centres undefined),0.02,.
CSc1n[nH]c(C23CC4CC(CC(C4)C2)C3)n1,0.165,1.2
Cc1c(S(=O)(=O)C(C)C)c(N)n(Cc2ccc(Cl)cc2Cl)c1C,0.81,0.3
CC(C(=O)Nc1cccc(C#N)c1)N(C)CC(=O)Nc1ccc(Cl)cc1 (centres undefined),.,1.2
O=C(Cc1ccc2c(c1)OCCO2)NCc1ccco1,.,1.45
O=C(O)CSc1nnc2n(CCOc3ccccc3)c3ccccc3n12,-0.115,1.05
CC1CCCC(C)N1C(=O)CSc1ccc(-c2ccc3c(c2)OCCO3)nn1 (centres undefined),.,0.35
CCc1ccc(C2C(C#N)=C(N)OC3=C2C(=O)CCC3)cc1 (centres undefined),0.57,-0.3
CCCCNC(=O)c1sc2ncnc(N3CCN(c4ccc(OC)cc4)CC3)c2c1C,0.06,.
CC1Cc2ccccc2N1C(=O)COc1ccc(C(=O)c2ccc(F)cc2)cc1 (centres undefined),0.395,-0.85
COC(=O)c1c(C)nn(CCC#N)c1N,0.79,-0.1
CCNc1nc(C)nc2sc(CC)cc12,.,-0.15
CCCCN1C(=O)C2ON(c3ccc(Cl)cc3)C(c3ccccc3)C2C1=O (centres undefined),-0.44,0.3
Cc1ccccc1-n1c(=S)sc2c1nc(SCc1cccc([N+](=O)[O-])c1)n1c3ccccc3nc21,-0.175,.
COc1cc(-c2[nH]nc3c2C(c2cc(OC)c(OC(=O)N4CCOCC4)c(OC)c2)C(C#N)=C(N)O3)cc(OC)c1OC (centres undefined),-0.605,.
COC(=O)c1ccc(CSc2nc3ccncc3n2CC(=O)N2CCCC2)cc1,0.28,-0.1
CCOc1ccccc1C(=O)N1CC(C)N(C(=O)c2ccccc2OCC)CC1C (centres undefined),-0.07,-0.15
CC(=O)N1CCC(N(C(=O)c2ccccc2)c2cccc(S(=O)(=O)C(F)(F)F)c2)CC1,-0.89,.
N#Cc1sc(C(N)=O)c2c1CCCC2,-0.46,0.4

# Structures above that have fluorine:
SMILES,CapD inh,AID504770
NNC(=O)c1ccc(OCc2ccc(F)cc2)cc1,0.85,-0.15
CCN1CCN(C(c2cccs2)C(C)NC(=O)Cc2ccc(F)cc2)CC1 (centres undefined),0.185,-0.5
FC(F)(F)CN(Cn1nc(-c2ccco2)oc1=S)Cn1nc(-c2ccco2)oc1=S,.,-0.2
CC1Cc2ccccc2N1C(=O)COc1ccc(C(=O)c2ccc(F)cc2)cc1 (centres undefined),0.395,-0.85
CC(=O)N1CCC(N(C(=O)c2ccccc2)c2cccc(S(=O)(=O)C(F)(F)F)c2)CC1,-0.89,.

# Part of the list above, reformatted:
# The line under a structure holds: CapD inh | AID504770
> CC1CCCC(C)N1C(=O)CSc1ccc(-c2ccc3c(c2)OCCO3)nn1 (centres undefined)
→ . | 0.35
> CCCOc1ccc(C2Oc3ccccc3C3CC(c4cccc5ccccc45)=NN32)cc1 (centres undefined)
→ 20.7 | .

# Later entries
SMILES,CapD inh,AID504770
CC1CCCC(C(=O)OCc2ccccc2)N1 (centres undefined),0.265,1.75
COc1cccc(NC(=O)CSc2nc(N)cc(=O)[nH]2)c1,0.165,-0.85
CCOC(=O)C1=C(c2ccccc2)N=C2SCC(=O)N2C1c1c(OC)ccc2ccccc12 (centres undefined),-0.32,.
CCNC(=S)NNC(=O)c1ccc(OCc2ccccc2)cc1Cl,-0.58,.
CCOC(=O)C1=C(C)NC(=S)N(C(C)=O)C1c1cccs1 (centres undefined),-1.2,.
O=C1CCCCC1C1(O)C(=O)Nc2ccccc21 (centres undefined),0.135,-0.3
COc1cccc(NC(=O)COC(=O)C2CCCCC2)c1,-1.67,1.95
N#Cc1cccc(C(=O)Cc2cccc(Oc3ccccc3)c2)c1,0.305,-0.75
CCOC(CNC(=O)c1ccc2nc3[nH]c4ccccc4c3nc2c1)OCC,1.43,.
C=C1Cn2c(nnc2-c2ccc(Br)cc2)S1,0.32,-1.2
O=C(On1c(C2CCCCC2)nc2ccccc2c1=O)c1ccc(F)cc1,-0.845,.
CN(C)C=NC(=O)c1sc2cc(C(F)(F)F)cnc2c1-c1cccs1,-1.52,.
FC(F)(F)Oc1ccc(OCc2n[nH]c(=S)o2)cc1,0.08,0.1
O=C(c1cc(-c2ccc(O)cc2)on1)N1CCCCC1,-0.315,0.05
CCOC(=O)C1=C(C)N=c2s/c(=C/c3ccc(N4CCOCC4)o3)c(=O)n2C1c1ccccc1OC (centres undefined),-0.395,.
COC(=O)c1sc(-n2cccc2)c(C(=O)OC)c1C,-1.85,1.85
CN(C)c1nc(NCCO)c2cnn(C)c2n1,.,0.25
Cn1nc(N)c2cc(S(C)(=O)=O)c(-c3ccccc3)nc21,-0.53,.
CC1=NN(c2ccccc2)C(=O)/C1=C\c1c(O)n(-c2ccc(F)cc2)[nH]c1=O,-1.23,0
C=CCNC(=S)c1c(-c2ccccc2)c2c3n(c(-c4ccc(Br)cc4)nn13)CCCC2,-0.555,.
Cc1ccc(-n2c(C)cc(C(=O)CSc3nnc4ccccn34)c2C)cc1,0.17,1.65
Cc1ccc(SCCC(=O)N2CCCC2)cc1,0.69,0.4
O=C(CCCN1C(=O)c2ccccc2C1=O)NCc1ccccc1,.,-0.35
N#CCSc1nc2ccc(Cl)cc2[nH]1,-0.325,-1.15
Cc1cc(NC(=O)c2cccc(-n3cnnc3)c2)no1,0.05,-1

# Some of these compounds in order of formula weight, low to high.
SMILES,CapD inh,AID504770
CN(C)c1nc(NCCO)c2cnn(C)c2n1,.,0.25
O=C(On1c(C2CCCCC2)nc2ccccc2c1=O)c1ccc(F)cc1,-0.845,.
CC1=NN(c2ccccc2)C(=O)/C1=C\c1c(O)n(-c2ccc(F)cc2)[nH]c1=O,-1.23,0

# (continued)
SMILES,CapD inh,AID504770
CCOc1ccc(N=C2SC(C(=O)Nc3ccc(Br)cc3)CC(=O)N2C)cc1 (centres undefined),0.265,.
O=C(Cc1csc(N2CCOCC2)n1)N/N=C/c1ccc(F)cc1,.,-0.35
CCCS(=O)(=O)N1CCCC(C(=O)NCCCN2CCN(c3ccc(F)cc3)CC2)C1 (centres undefined),-0.065,0.8
Cc1cc(Cl)c2ccccc2[n+]1[O-],-2.1,-1.5
CC(C)CNS(=O)(=O)C1CCS(=O)(=O)C1 (centres undefined),-0.32,-1.85
CCOC(=O)COc1ccc(S(=O)(=O)NCc2ccncc2)cc1,0.3,-1.2
CCOC(=O)C1=NN(c2ccc(C)cc2)C2(S1)SC(c1ccccc1)(c1ccccc1)c1ccccc12 (centres undefined),-0.065,.
CN(Cc1ccccc1F)C(=O)CCCn1c(=O)oc2ccccc21,.,-0.05
Cc1cc(C)c2oc(-c3cc(N)ccc3Cl)nc2c1,6.54,-0.05
O=C(O)CCc1nnc2ccc(N3CCC4(CC3)OCCO4)nn12,-0.335,-0.5
CC1=CC(=C(C#N)c2nc3ccccc3s2)C=C(C)N1CC1CCCO1 (centres undefined),.,1.65
CC(C)OCCCn1c(=O)c2ccccc2n2c(CCC(=O)Nc3ccccc3)nnc12,1.12,0.35
S=C(c1ccccc1)N1CCOCC1,0.12,-0.8
N#C/C(=C\Nc1ccc2c(c1)OCCO2)c1nc2ccccc2[nH]1,.,0.15
COc1ccc(NCc2nnc(SCC(N)=O)n2-c2ccc(C)cc2)cc1,.,-0.6
CCOc1ccc(N)cc1OCC,0.06,-0.9
O=C(COC(=O)CN1C(=O)c2ccccc2C1=O)Nc1ccccc1,.,0
CCOC(=O)c1c(NC(=O)c2cc3ccccc3c(=O)o2)sc2c1CCCCCC2,0.375,-0.1
CC(C)CCn1c(=O)c2ccccc2n2c(CCC(=O)NCc3cccnc3)nnc12,-0.1,-0.05
Cc1ccc(Sc2cn[nH]c2C)cc1,-0.445,-0.65
C=CCN1/C(=C\CO)[C@@H]2C[C@@H]3[C@H]1CC[C@@]31c3ccccc3N3/C=C4\C5N(/C=C/2C31)c1ccccc1[C@@]51CC[C@@H]2[C@H]1C[C@H]4/C(=C/CO)N2CC=C (some centres undefined),-0.37,.
Cc1ccc2c(c1)N(C(=O)N1CCCC(C(=O)NCc3ccc(Cl)cc3)C1)CC(C)O2 (centres undefined),-0.805,-1.5
CN1C(=O)CC(Nc2ccc(N(C)C)cc2)C1=O (centres undefined),.,0.25
CN(C)/C=C/C(=O)c1cc(OCC(F)(F)F)ccc1OCC(F)(F)F,-1.03,0.75
O=C1C(Cc2c[nH]c3ccccc23)NC(=S)N1c1ccccc1Cl (centres undefined),0.735,0
SMILES,CapD inh,AID504770
CCn1c(-c2ccccc2)csc1=Nc1ccc2[nH]c(=O)[nH]c2c1,.,-0.75
COC(=O)c1ccc(Cl)cc1NC(C)=O,0.17,.
COc1ccc(S(=O)(=O)Nc2ccc(C#N)cc2)cc1OC,0.63,0.75
COC(=O)c1ccc(-c2cccs2)nc1C,92.5,-0.35
CCOc1cccc2c1OC1(CCC(C)CC1)N1N=C(c3ccc(C)o3)CC21 (centres undefined),-1.01,.
O/N=C1\CCCCC1C1=CCCCC1 (centres undefined),.,1.85
COc1ccc(N2Cc3cccc(C(=O)NCCC4=CCCCC4)c3C2=O)cc1,3.54,1.75
CCOc1ccc2c(-c3ccccc3)cc(=O)oc2c1,5.53,-0.55
CCOC(=O)C1=C(C)OC(N)=C(C(=O)OCc2ccccc2)C12C(=O)Nc1ccccc12 (centres undefined),0.53,.
O=C1c2c(O)cccc2Cc2cccc(O)c21,0.405,0.1
Nc1nnc(C23CC4CC(CC(C4)C2)C3)s1,0.325,-0.1
CCCS(=O)(=O)c1c(S(=O)(=O)CCC)c2ccc(C(C)=O)cn2c1C(=O)c1ccc(OC)cc1,0.69,.
O=C(O)CCNC(=S)Nc1ccccc1C(F)(F)F,-0.58,.
COc1ccc(O)c(C(=O)c2cnn(-c3nnc(C)c(=O)[nH]3)c2)c1,.,-0.7
CC1C=CCC2C(=O)N(c3cccc(C(=O)N4CCN(c5ccc(F)cc5)CC4)c3)C(=O)C12 (centres undefined),-0.02,.
C=CCN1C(=O)NC(=O)/C(=C/c2cccc(OCc3ccccc3Cl)c2)C1=O,0.79,.
Cc1ccc2oc(=O)cc(CN(C)CCO)c2c1,.,0.45
CCOC(=O)c1cnc(SCc2ccc(C)cc2)nc1C(F)(F)F,0.02,0.6
CN1C(=O)/C(=C2\SC(N3CCCCCC3)=NC2=O)c2ccccc21,-0.925,-1.45
COC(=S)Nc1ccc(F)cc1,0.71,-0.9
C=CCN1C(=O)/C(=C\c2cccs2)S/C1=N/c1nnc(CC)s1,1.01,.
O=C(NCc1ccco1)C1CCN(c2nc3ccccc3n2Cc2cccc(F)c2)CC1,-0.955,-2.45
COc1ccc(CCNC(=O)c2ccc3noc(-c4ccccc4)c3c2)cc1OC,0.13,1.95
Cc1nc(-c2ccc(-n3nncc3-c3cccs3)cc2)cs1,.,-0.4
CC(NCc1cccs1)C(=O)Nc1ccc(S(=O)(=O)N2CCCC2)cc1 (centres undefined),.,-0.2
NC(=O)COC(=O)c1ccc(O)cc1,.,0
CC(=O)N1CCOc2cc(S(=O)(=O)N(C)Cc3ccccc3)ccc21,0.075,-0.25
